Source: PubChem
HSV replic up: enhancers of HSV replication in host cells, fold increase, host cell viability; maximum fold increase; actives 0.005% (n = 220,000); AID 1956, 2009; HSV replication augmentation in cells;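 active means peak rise of 1.5-fold or more in the series; tested in PC3 cells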;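 further: first round at 10 µM; read as green reporter fluorescence; hits show the peak of a series up to 25 µM; 1 = signal of infected wells without compound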
Insulin prom inh: inhibitors of insulin promoter-driven GFP, primary screen, imaging, TRM-6 cells (human fetal islet line), eGFP reporter, cell count; reporter expression induced with tamoxifen; inhibition, % at 2 µM; actives 0.9% (n = 130,000);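 active means inhibition above the mean plus 3 SD, with well images judged a real hit on visual review, cut at about 60% in these data, passing the limit was not always enough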
RGS16-Gao: modulators of RGS16 binding to Galphao, primary screen, biochemical, human proteins, multiplexed bead flow cytometry | binding response (% of control), % at 10 µM | actives 0.38% (n = 220,000) | bead-based flow cytometry RGS16-Galphao binding, fluorescence; actives lie on both sides;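 active means below 25% or above 175%, edge rows of some plates excepted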;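 further: Galphao activated by GDP with aluminum fluoride before binding; 100% = wells without compound and 0% = beads without RGS; some results beyond the cut were filed as inactive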
Target sequence (O15492 whole entry, looked up): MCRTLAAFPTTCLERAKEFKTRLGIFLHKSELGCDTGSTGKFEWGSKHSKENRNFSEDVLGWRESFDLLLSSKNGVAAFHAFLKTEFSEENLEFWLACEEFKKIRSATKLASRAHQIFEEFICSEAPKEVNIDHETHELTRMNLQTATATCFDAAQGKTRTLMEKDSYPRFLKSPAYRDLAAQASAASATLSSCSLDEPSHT
Target sequence (P09471 whole entry, looked up): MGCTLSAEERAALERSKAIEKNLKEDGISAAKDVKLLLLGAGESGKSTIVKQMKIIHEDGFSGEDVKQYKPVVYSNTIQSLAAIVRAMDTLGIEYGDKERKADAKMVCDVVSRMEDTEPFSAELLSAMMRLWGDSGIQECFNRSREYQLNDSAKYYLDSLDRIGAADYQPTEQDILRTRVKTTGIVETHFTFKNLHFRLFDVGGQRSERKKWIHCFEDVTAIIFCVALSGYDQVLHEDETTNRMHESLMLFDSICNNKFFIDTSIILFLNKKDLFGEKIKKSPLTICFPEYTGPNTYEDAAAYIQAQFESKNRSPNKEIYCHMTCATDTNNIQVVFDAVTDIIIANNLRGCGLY
GALR2 ag: GALR2 receptor agonists, primary screen, cell-based | Galanin receptor type 2 (Homo sapiens), O43603 | GALR2-expressing cells, agonist activation read-out | activation, %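 (tested at 5 µM)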 | actives 0.48% (n = 140,000);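 active means above mean plus 3 SD of all compounds, about 5% in these data, not always enough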;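 further: 0% = vehicle buffer wells and 100% = reference agonist at full effect; tested in CHO reporter cells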
Target sequence (O43603 whole entry, looked up): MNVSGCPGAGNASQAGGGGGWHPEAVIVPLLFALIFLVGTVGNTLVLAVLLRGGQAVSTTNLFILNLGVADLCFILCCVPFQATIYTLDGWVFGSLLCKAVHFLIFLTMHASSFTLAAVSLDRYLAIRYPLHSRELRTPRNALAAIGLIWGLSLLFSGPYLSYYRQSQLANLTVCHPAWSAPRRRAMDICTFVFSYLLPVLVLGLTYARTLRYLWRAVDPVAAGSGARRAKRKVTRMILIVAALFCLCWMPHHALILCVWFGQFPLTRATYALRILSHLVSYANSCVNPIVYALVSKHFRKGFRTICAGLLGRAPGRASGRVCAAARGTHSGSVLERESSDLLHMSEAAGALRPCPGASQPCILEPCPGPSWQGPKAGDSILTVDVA
PKD1 kinase inh: inhibitors of human PKD1 kinase, biochemical, fluorescence polarization. PKD1 kinase fluorescence polarization assay. inhibition, %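 (about 10 µM by stock and volumes)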. Serine/threonine-protein kinase D1 (Homo sapiens), Q15139. AID 797, 2007. actives 0.056% (n = 200,000);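 active means inhibition of 50% or more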;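 further: controls were vehicle for no effect and a reference inhibitor for full effect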
Insulin prom inh cell count: also measured in Insulin prom inh; calls as there; normalized cell count, %; measured here: cell count, toxicity; reference of the scale not given here;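 cells exposed to compound for 48 h; stained nuclei by imaging scaled within each plate; lower means fewer cells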
HSV replic up primary fold: second read-out of HSV replic up, no call of its own (marks repeat the call); fold increase; compound at 10 µM; measured here: primary screen fold increase 10 uM; tested in PC3 cells;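 GFP signal in the first replicate; 1 = infected wells without compound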
Active calls of the source: *; i = inactive; x = no result given.

SMILES	HSV replic up	HSV replic up primary fold	Insulin prom inh	Insulin prom inh cell count	RGS16-Gao	GALR2 ag	PKD1 kinase inh
CC(=O)Nc1nc(N2C(=O)c3ccccc3C2=O)n(-c2ccccc2)n1	i	0.87	76*	62*	100	-0.6	2
Cc1cc(C)n(C2CC(=O)N(c3ccc(C)c(Cl)c3)C2=O)n1 (stereo not drawn)	i	1	x	x	93	x	x
NS(=O)(=O)c1ccc(NC(=S)N2CCN(S(=O)(=O)c3ccc(F)cc3)CC2)cc1	i	1	-26	57	106	-1.4	11
Cc1ccc(C2/C(=C(/O)c3cnn(-c4ccccc4)c3C)C(=O)C(=O)N2CCCN2CCOCC2)o1 (stereo not drawn)	i	0.97	x	x	98	x	x
COc1ccc2cc(CN(C(=O)Nc3ccccc3OC)C3CCCC3)c(=O)[nH]c2c1	i	0.87	-27	68	99	-1.3	1
CCCCn1nnc(NC(=O)Cc2ccc(Cl)cc2)n1	i	0.99	55	117	104	-0.8	7
Cn1c(CCNC(=O)c2ccccc2F)nnc1SCc1nc2ccccc2c(=O)[nH]1	i	0.91	6	152	102	-5.0	-3
CCOC(=O)c1cc(-c2csc(COc3ccccc3Cl)n2)on1	i	1	x	x	102	x	x
CCCCOc1ccc(S(N)(=O)=O)cc1	i	0.99	-69	77	85	0.1	2
CCN(CC)S(=O)(=O)c1ccc(C(=O)Nc2ccc3c(c2)OCCO3)cc1	i	0.98	x	x	100	-0.2	5
COc1ccccc1CC(=O)Nc1cccc(C)n1	i	0.93	x	x	105	x	-4
CC(C)C(=O)Nc1ccc(NC(=O)CCc2ccccc2)cn1	i	1	-78	44	95	x	-4
COc1ccc(C(=O)COC(=O)CCn2nnc(-c3cccc(O)c3OC)n2)cc1	i	0.94	x	x	106	-1.9	8
CC(O)COc1ccc(/C(=N/O)c2ccccc2)cc1 (stereo not drawn)	i	0.9	x	x	100	-0.9	4
CCCc1c(C(=O)Nc2ccc(OC)cc2)cnn1-c1ccccc1	i	1.1	x	x	106	x	x
Cc1c(F)cccc1NC(=O)CCCCCC1NC(=O)NC1C (stereo not drawn)	i	0.88	x	x	100	x	3
CC(C)(C)OC(=O)CNC(=O)c1[nH]cnc1C(=O)Nc1ccc(Cl)cc1	i	0.68	x	x	99	x	x
CC1(C)Cc2c(C#N)c(SCC(=O)c3ccccc3)nc(N3CCOCC3)c2CO1	x	x	x	x	97	-0.4	-4
Cc1ccc(S(=O)(=O)NN2C(=O)c3ccccc3NC2c2ccccc2O)cc1 (stereo not drawn)	i	1	-50	131	99	x	1
CN1C(=O)/C(=C/c2ccccc2OCc2cccc(F)c2)NC1=S	i	0.83	30	104	99	146*	14
CSC1=NCCN1C(=O)Cc1ccc(Cl)cc1	i	0.92	x	x	98	-1.2	-3
COCc1nnc(NC(C)=O)s1	i	0.99	x	x	200	x	1
C(=N\Nc1nc2ccccc2[nH]1)/c1ccc2c(c1)OCCO2	i	0.93	x	x	107	x	x
CCOc1ccc(NC(=O)Nc2cccn(Cc3ccccc3)c2=O)cc1	i	1.1	21	100	102	x	9
Cc1sc2nc(SCC(=O)NCCO)n(-c3ccccc3)c(=O)c2c1C	i	0.92	x	x	103	x	0
C=CCn1c(SCC(=O)c2cc(C)n(C(C)COC)c2C)nc2sc(C)c(C)c2c1=O (stereo not drawn)	i	1.1	-2	83	100	-0.3	-13
CC(C)C1=NN2C(=N)CC(=O)N=C2S1	i	0.81	x	x	111	0.1	-7
Cc1ccc(-n2c(=O)c3sccc3n(Cc3cc(=O)n4ccccc4n3)c2=O)cc1	i	0.97	20	123	102	-1.0	-3
O=C(Nc1ccccc1F)c1ccncc1	i	0.96	67	111	88	-4.0	-3
O=C(O)c1ccc(/C=N/NC(=O)c2ccc(Br)cc2)cc1	i	0.9	-38	136	94	-1.0	-5
NCCOc1ccccc1Cc1ccccc1	i	1	-47	95	108	-2.1	3
O=C(CSc1nc2ccc(N3CCOCC3)cc2c(=O)n1CCc1ccccc1)NCC1CCCO1 (stereo not drawn)	i	0.92	20	72	98	x	6
CN(c1ccc(OCC(=O)OCC(=O)Nc2ccccc2F)cc1)S(=O)(=O)c1cccs1	i	0.97	54	108	101	-0.4	1
NS(=O)(=O)c1ccc(NC(=O)c2ccc3nccnc3c2)cc1	i	0.83	x	x	97	x	x
COC(=O)c1ccc(-n2c(C)cc(-c3csc(NC(=O)c4ccc(S(=O)(=O)N(C)C)cc4)n3)c2C)cc1	i	1.2	18	112	98	-1.8	-7
COC(=O)c1c(C)[nH]c(C(=O)/C=C/c2ccccc2)c1C	i	1.1	23	138	106	6.2*	5
COc1ccc(C(C)=O)cc1CSc1nc2ccccc2c(=O)n1-c1cccc(C)c1	i	0.74	27	83	98	-0.7	-5
CCOC(=O)c1cnc2c(C(F)(F)F)cccc2c1N1CCOCC1	i	0.89	-49	71	93	-0.5	-1
Cc1c(C(=O)NC(=S)NCC(C)C)oc2ccccc12	i	0.99	11	86	109	-1.5	-4
Cc1ccc(C(=O)OCc2cn(-c3ccccc3)nn2)cc1	i	1	-11	108	97	x	-1
O=C(NNC(=O)c1cc2cc3ccccc3nc2s1)c1cccc(Cl)c1	i	0.9	-16	80	91	1.0	-11
CCS(=O)(=O)c1ccc2c(c1)N(S(C)(=O)=O)CC(C(=O)NCCOC)O2 (stereo not drawn)	i	0.75	-23	99	102	-1.0	0
COC(=O)c1sccc1-n1cccc1C(=O)C(=O)Nc1ccc(F)cc1	i	0.92	-3	62	99	x	2
Cc1ccc(C(=O)NC(N(C)C)C(Cl)(Cl)Cl)cc1 (stereo not drawn)	i	0.9	x	x	99	x	-7
O=c1c2c(nc3c(-c4ccc(Cl)cc4)c[nH]n13)CCC2	i	0.98	62	110	100	x	1
O=C(COC(=O)c1ccc(-c2cnc3ccccc3n2)cc1)c1ccccc1	i	1.2	6	90	105	-0.5	6
Clc1ccccc1-c1nnc2n1CCCCC2	i	0.75	x	x	99	x	x
COc1ccccc1NS(=O)(=O)c1ccc(C(N)=O)cc1	i	1.1	x	x	98	x	12
O=C(/C(=C/O)N=Nc1cccc(C(F)(F)F)c1)c1ccccc1	i	0.88	33	93	104	x	-3
Cc1ccc(C(=O)Nc2nnn(C)n2)cc1	i	0.76	12	77	59	-2.2	-16
COc1ccc(CC(=O)N/N=C(/C)c2ccco2)cc1	i	0.87	x	x	108	x	-12
Cc1nc(SCc2c(F)cccc2Cl)c2c(=O)n(C)c(=O)n(C)c2n1	i	0.92	x	x	101	-1.0	0
O=c1[nH]c(-c2ccccc2)cs1	i	1.1	31	42	98	-2.9	-19
Cc1nnc(SCc2cc(=O)oc3ccc4ccccc4c23)n1Cc1ccccc1	i	1.1	x	x	102	0.6	6
CCOCCCNCc1cn(-c2ccc(F)cc2F)nc1-c1ccccc1C	i	0.91	x	x	94	x	-3
COC(=O)c1ccc(CSc2nc3scc(-c4cccs4)c3c(=O)[nH]2)o1	i	0.93	15	104	94	-2.4	-4
COc1ccc(C(=O)COC(=O)c2ccc(NC(=O)c3ccccc3)cc2)cc1	i	0.86	57	74	95	-0.1	3
CN1CCN(CC(=O)Nc2c(C(=O)C3CC3)oc3ccccc23)CC1	i	0.85	14	48	109	-3.6	4
O=C1CC(N2CCC(c3nc4ccccc4o3)CC2)C(=O)N1c1cc(Cl)cc(Cl)c1 (stereo not drawn)	i	0.86	6	83	97	-1.6	-10
COc1ccc(S(=O)(=O)N(CC(=O)O)c2ccc(C)cc2)cc1	i	0.97	x	x	96	0.0	2

New compounds follow.
SMILES	HSV replic up	HSV replic up primary fold	Insulin prom inh	Insulin prom inh cell count	RGS16-Gao	GALR2 ag	PKD1 kinase inh
Cc1noc(C)c1C(=O)Nc1cccnc1	i	0.95	25	117	103	-1.9	-2
O=C1CC(c2ccccc2)CC(O)=C1C=NCc1ccncc1 (stereo not drawn)	i	1.1	x	x	114	x	8
O=C1C2CCCN2C(c2ccccc2F)N1c1ccc(Cl)cc1 (stereo not drawn)	i	1.1	x	x	102	-1.7	23
O=C(NCCO)/C(=C\c1cccc([N+](=O)[O-])c1)NC(=O)c1ccco1	i	1.1	x	x	97	-1.1	0
COc1ccc(CN2C(=O)C3C4C=CC(C4)C3C2=O)cc1 (stereo not drawn)	i	0.98	-30	116	104	0.4	-4
C/C(CC(C)C)=N\NS(=O)(=O)c1ccc(C)c([N+](=O)[O-])c1	i	0.8	x	x	102	x	x
COc1ccc(S(=O)(=O)N2CCCC(C(=O)O)C2)cc1 (stereo not drawn)	x	x	-10	140	109	-1.4	-9
O=C(c1ccc(F)cc1)c1ccc(N2CCCC2)cc1	i	1.1	19	76	104	-1.5	-9
COC(=O)C1(C)NC(c2ccco2)C2C(=O)N(c3ccc(F)cc3)C(=O)C21 (stereo not drawn)	i	0.98	x	x	97	x	0
C#Cc1ccc(CN2CCN(Cc3ccsc3)C(CCO)C2)cc1 (stereo not drawn)	i	0.99	x	x	106	x	8
Cc1cc(C)c(NC(=O)CSc2nccn2C)c(C)c1	i	0.92	-5	143	101	-1.5	-7
CC(=O)Nc1ccccc1NC(=O)C/C(C)=N/NC(=O)c1ccc([N+](=O)[O-])c(Cl)c1	i	0.97	21	180	101	-1.0	1
CCCN(CCC)S(=O)(=O)c1ccc(NC(=O)Cc2cccs2)cc1	i	0.9	-63	113	109	-0.9	8
COc1ccccc1N1CCN(S(=O)(=O)c2cccc3nsnc23)CC1	i	0.95	-30	56	124	-3.2	-1
COC(=O)N/N=C/c1ccc(OS(=O)(=O)c2ccc(C)cc2)c(OC)c1	i	0.74	x	x	104	x	0
CCn1c(C)nc2cc(N)ccc21	i	1	x	x	97	x	x
CCCCCCCCNC(=O)c1cnccn1	i	0.93	x	x	136	-0.9	11
CCN(CC)/C(Sc1ccccc1)=C(\C(Cl)=C(Cl)Cl)[N+](=O)[O-]	i	1	-36	120	111	x	2
CCc1ncc(C)nc1CC	i	0.95	x	x	96	x	x
O=C(Nc1nc2ccc(S(=O)(=O)N3CCCCC3)cc2s1)C1CCCO1 (stereo not drawn)	i	0.95	-5	134	99	-3.6	-2
COc1cccc2sc(NNC(=O)C3COc4ccccc4O3)nc12 (stereo not drawn)	i	1.1	-47	117	92	x	-10

3 compounds from above, ordered by the number in RGS16-Gao, lowest first:
Compound,RGS16-Gao
COc1ccc(C(=O)COC(=O)c2ccc(NC(=O)c3ccccc3)cc2)cc1,95
O=C1CC(N2CCC(c3nc4ccccc4o3)CC2)C(=O)N1c1cc(Cl)cc(Cl)c1 (stereo not drawn),97
COC(=O)c1c(C)[nH]c(C(=O)/C=C/c2ccccc2)c1C,106

A different layout for part of the listing above:
structure,HSV replic up,HSV replic up primary fold,Insulin prom inh,Insulin prom inh cell count,RGS16-Gao,GALR2 ag,PKD1 kinase inh
C/C(CC(C)C)=N\NS(=O)(=O)c1ccc(C)c([N+](=O)[O-])c1,i,0.8,x,x,102,x,x
COc1ccc(S(=O)(=O)N2CCCC(C(=O)O)C2)cc1 (stereo not drawn),x,x,-10,140,109,-1.4,-9
O=C(c1ccc(F)cc1)c1ccc(N2CCCC2)cc1,i,1.1,19,76,104,-1.5,-9
COC(=O)C1(C)NC(c2ccco2)C2C(=O)N(c3ccc(F)cc3)C(=O)C21 (stereo not drawn),i,0.98,x,x,97,x,0
C#Cc1ccc(CN2CCN(Cc3ccsc3)C(CCO)C2)cc1 (stereo not drawn),i,0.99,x,x,106,x,8
Cc1cc(C)c(NC(=O)CSc2nccn2C)c(C)c1,i,0.92,-5,143,101,-1.5,-7
CC(=O)Nc1ccccc1NC(=O)C/C(C)=N/NC(=O)c1ccc([N+](=O)[O-])c(Cl)c1,i,0.97,21,180,101,-1.0,1
CCCN(CCC)S(=O)(=O)c1ccc(NC(=O)Cc2cccs2)cc1,i,0.9,-63,113,109,-0.9,8
COc1ccccc1N1CCN(S(=O)(=O)c2cccc3nsnc23)CC1,i,0.95,-30,56,124,-3.2,-1
COC(=O)N/N=C/c1ccc(OS(=O)(=O)c2ccc(C)cc2)c(OC)c1,i,0.74,x,x,104,x,0
CCn1c(C)nc2cc(N)ccc21,i,1,x,x,97,x,x
CCCCCCCCNC(=O)c1cnccn1,i,0.93,x,x,136,-0.9,11
CCN(CC)/C(Sc1ccccc1)=C(\C(Cl)=C(Cl)Cl)[N+](=O)[O-],i,1,-36,120,111,x,2
